# Source: PubChem BioAssay
# Tau fluor cs: counter-screen for tau fibril formation inhibitors. tau K18 P301L Alexa594 fluorescence, heparin fibrillization. Potency, µM (highest dose often 57.7 µM), inactives show at the highest dose activity change, negative = decrease. actives 0.93% (n = 280,000). AID 1463; further: nearly all actives have a fitted effect of over 55% in size
#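 Human tau K18 P301L (15 uM unlabeled, 0.24 uM Alexa 594-labeled) in 100 mM sodium acetate pH 7 with 20 uM heparin, 6 hr at 37 C. ThT 30 uM added, 1 hr ambient; Alexa 594 FP and total fluorescence read at 555/632 nm.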
# TR SRC2 fluor cs: counter-screen for TRb-SRC2 inhibitors: fluorescence interference; Potency, µM (highest dose often 106 µM), for the others: at the highest dose fluorescence change, negative = quenching; actives 0.29% (n = 280,000); TRb/SRC2 Texas Red total fluorescence interference; active means well fitted curve in either direction with a large enough effect; inconclusive means small, poorly fitted or top-dose-only effect
#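 Flags fluorescent or light-absorbing compounds by total fluorescence, S + 2P, at 555 nm excitation and 632 nm emission. Mixture: 20 nM Texas Red SRC2 peptide, 0.6 uM human TRb LBD, 1 uM T3, 5% DMSO; compound exposure 5 h at ambient temperature.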
# ALDH1A1 block: inhibitors of human aldehyde dehydrogenase 1A1. Potency, µM (doses to about 75.3 µM), inactives show at the top dose activity, negative = inhibition, actives largely listed as inhibitors. P00352. AID 1030. Purified ALDH1A1, NADH fluorescence, propionaldehyde substrate. actives 7.3% (n = 220,000); active means well fitted inhibition curve with a large enough effect, not every such curve was filed as active; inconclusive means small, poorly fitted or top-dose-only effect, or another doubt; inactive means no such curve, though single readings can be large or run the other way;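 further: plate controls were no enzyme wells and a reference inhibitor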
# TRb-SRC2 inh: TRbeta-SRC2 interaction inhibition; AID 1469; Potency, µM (top dose mostly 106 µM), without a hit: at the highest dose activity change, negative = inhibition, most hits filed as inhibitors; TRbeta-SRC2 peptide binding, fluorescence polarization; receptor liganded with 1 µM T3; P10828; actives 0.065% (n = 280,000);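 further: plate controls were bound peptide for no effect and peptide without receptor for full effect; nearly all actives have a fitted effect of over 50% in size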
# Target sequence (P10828 whole entry, looked up): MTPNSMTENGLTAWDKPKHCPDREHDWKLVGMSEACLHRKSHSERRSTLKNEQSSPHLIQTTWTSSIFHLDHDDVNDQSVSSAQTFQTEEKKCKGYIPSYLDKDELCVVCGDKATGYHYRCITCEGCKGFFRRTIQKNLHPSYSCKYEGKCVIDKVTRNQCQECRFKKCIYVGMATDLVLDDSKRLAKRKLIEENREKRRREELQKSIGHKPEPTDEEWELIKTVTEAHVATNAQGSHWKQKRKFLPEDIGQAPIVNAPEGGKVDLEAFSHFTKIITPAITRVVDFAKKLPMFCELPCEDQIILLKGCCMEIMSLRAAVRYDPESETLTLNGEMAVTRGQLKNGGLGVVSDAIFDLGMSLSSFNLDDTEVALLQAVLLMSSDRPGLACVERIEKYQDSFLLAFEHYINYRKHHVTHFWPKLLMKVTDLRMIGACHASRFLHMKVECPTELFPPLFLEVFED
#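 Fluorescence polarization of 20 nM Texas Red SRC2 peptide with 0.6 uM human TRb ligand-binding domain, in Tris buffer with 1uM T3 and 5% DMSO. Incubated 5 hr ambient; normalized to unbound and bound controls.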
# GLA spleen mod: inhibitors or activators of human alpha-galactosidase in spleen homogenate; P06280; actives 0.008% (n = 240,000); human spleen homogenate, 4MU-alpha-Gal fluorescence, 40 min; Potency, µM (highest dose often 80 µM), for the others: at the highest dose activity change, negative = inhibition, usual class: inhibitors;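 further: 0% = enzyme with vehicle and -100% = no enzyme basal signal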
#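 Inhibition or activation of alpha-galactosidase in human spleen homogenate is scored by 4-MU fluorescence after 40 min at 37C, pH 5.0, with 1 mM substrate. AC50s come from concentration-response fitted to the Hill equation.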
# Tau ThT inhib: inhibitors of human tau fibril formation, thioflavin T binding | recombinant tau K18 P301L, heparin-induced fibrillization, ThT fluorescence | Potency, µM (series often up to 57.4 µM), for inactives: at the top dose activity, negative = inhibition, hits mostly inhibitors | actives 2.1% (n = 270,000) | AID 1460; further: nearly all actives have a fitted effect of over 55% in size
# Target sequence (P10636 561-689 P618L limits assumed): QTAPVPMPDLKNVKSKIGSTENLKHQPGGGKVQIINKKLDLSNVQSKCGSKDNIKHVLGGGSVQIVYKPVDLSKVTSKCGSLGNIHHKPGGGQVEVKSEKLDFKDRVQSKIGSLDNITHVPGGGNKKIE
#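 Aggregation was driven by heparin (20 uM final) acting on recombinant tau […] bearing P301L in 100 mM sodium acetate pH 7; fibrils were detected with Thioflavin T.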
# Tau fibril FP: tau fibrillization inhibition (FP) | P10636 | K18 P301L tau heparin fibrillization, Alexa594 FP, 6 h | Potency, µM (titrated, usually from 57.7 µM), without a hit: top-dose activity, negative = inhibition, hits mostly inhibitors | actives 0.39% (n = 280,000) | AID 1468; further: nearly all actives have a fitted effect of over 55% in size
#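 Heparin (20 uM) drove fibril formation of recombinant tau K18 P301L, 15 uM unlabeled with 0.24 uM Alexa 594 label, for 6 hr at 37 C in 100 mM sodium acetate pH 7. Fluorescence polarization (555/632 nm) read 1 hr after 30 uM ThT.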
# Starred values were filed as active, the others as inactive; ? = inconclusive; nt = no result given. Unless noted, the call rests on the fitted dose curve; in most records, active means well fitted curve in the direction sought with a large enough effect; inconclusive means small, poorly fitted or top-dose-only effect, or another doubt; inactive means no such curve, though single readings can be large; an effect the other way counts as inactive or inconclusive. Unless noted, on the % scale 0 is the no-effect control and ±100 the full control effect; potency means the concentration at half of the fitted maximal effect.
# Fields – Tau ThT inhib	TR SRC2 fluor cs	ALDH1A1 block	GLA spleen mod	TRb-SRC2 inh	Tau fluor cs	Tau fibril FP
> CC(C)c1cc(C(C)C)c(S(=O)(=O)NNC(=O)c2ccncc2)c(C(C)C)c1
→ -1.8%	0.9%	-2.4%	-3.2%	-4.9%	-16.5%	-13.3%
> O=C(O)c1cc(-c2ccco2)nn1-c1cccc(Cl)c1
→ -2.3%	1.8%	1.7%	-3.6%	6.1%	-3.4%	-9.1%
> CN(C)/C=N/c1nc(Sc2ccc(C(F)(F)F)cc2[N+](=O)[O-])n[nH]1
→ -7.3%	-2.1%	4.3%	4.7%	9.9%	-6.9%	-8.7%
> O=C(CSc1nccc(=O)[nH]1)NCc1ccco1
→ -10.6%	-1.2%	-2.1%	-0.6%	-0.4%	-3.5%	-11.1%
> CCOC(=O)CCC(NC(=O)c1cncc(O)c1)C(=O)OCC (stereo unspecified)
→ 13.2%	-7.9%	?	1.2%	-1.6%	5.0%	-10.4%
> O=C(COC(=O)COc1ccc(Nc2ccccc2)cc1)NCc1ccco1
→ ?	4.9%	?	7.8%	9.2%	-15.1%	0.3%
> CCOC(=O)CCC(=O)O[C@H]1[C@H](O[C@@H]2[C@@H](C)[C@H](O[C@H]3C[C@@](C)(OC)[C@@H](O)[C@H](C)O3)[C@@H](C)C(=O)O[C@H](CC)[C@@](C)(O)[C@H](O)[C@@H](C)C(=O)[C@H](C)C[C@@]2(C)O)O[C@H](C)C[C@@H]1N(C)C
→ -8.9%	-7.2%	-0.1%	-3.8%	-2.1%	-9.5%	-6.1%
> Cn1c(SCC(=O)N2CCCc3ccccc32)nc2cccnc21
→ -3.9%	0.3%	-11.8%	-5.7%	-0.8%	-0.9%	-4.5%
> COc1ccccc1-n1c(-c2cc(-c3ccc(F)cc3)n[nH]2)n[nH]c1=S
→ -9.6%	-4.5%	31.6µM*	2.4%	11.5%	-6.0%	10.6%
> COc1ccc(C2NC(c3ccc(OC)cc3OC)C(C)C(=O)C2C)c(OC)c1 (stereo unspecified)
→ 1.3%	-2.0%	?	-4.6%	-0.4%	-0.4%	-2.0%
> COc1ccc(OC)c(NC(=O)CSc2ccc3nnc(-c4cccnc4)n3n2)c1
→ -7.4%	0.2%	4.6%	-9.9%	5.5%	-11.4%	5.2%
> COc1cc(OC)c(OC)cc1/C=N/n1c(C)nnc1C
→ -1.6%	-4.9%	?	6.8%	5.9%	4.7%	2.2%
> CN(C)CCCN(CCCNC(=O)/C=N/O)Cc1ccccc1
→ 0.5%	-5.3%	0.8%	-22.8%	6.5%	-1.0%	-8.4%
> CCc1ccccc1NC(=O)C1=CC(c2ccc(OC)c(OC)c2)=NS(=O)(=O)N1C
→ ?	0.7%	nt	nt	1.2%	-2.7%	-2.7%

# Profiles from above. Values in the order: Tau ThT inhib	TR SRC2 fluor cs	ALDH1A1 block	GLA spleen mod	TRb-SRC2 inh	Tau fluor cs	Tau fibril FP
# `COc1ccc(C2NC(c3ccc(OC)cc3OC)C(C)C(=O)C2C)c(OC)c1` (stereo unspecified) is listed with 1.3%	-2.0%	?	-4.6%	-0.4%	-0.4%	-2.0%
# `Cn1c(SCC(=O)N2CCCc3ccccc32)nc2cccnc21` is listed with -3.9%	0.3%	-11.8%	-5.7%	-0.8%	-0.9%	-4.5%

# Molecules listed so far that have a halogen (3):
# Fields – Tau ThT inhib	TR SRC2 fluor cs	ALDH1A1 block	GLA spleen mod	TRb-SRC2 inh	Tau fluor cs	Tau fibril FP
> O=C(O)c1cc(-c2ccco2)nn1-c1cccc(Cl)c1
→ -2.3%	1.8%	1.7%	-3.6%	6.1%	-3.4%	-9.1%
> CN(C)/C=N/c1nc(Sc2ccc(C(F)(F)F)cc2[N+](=O)[O-])n[nH]1
→ -7.3%	-2.1%	4.3%	4.7%	9.9%	-6.9%	-8.7%
> COc1ccccc1-n1c(-c2cc(-c3ccc(F)cc3)n[nH]2)n[nH]c1=S
→ -9.6%	-4.5%	31.6µM*	2.4%	11.5%	-6.0%	10.6%

# Not all compounds are listed; count on the stated rates, not on these rows.
